NS1 inh = blocks influenza NS1 protein function; S. cerevisiae slowed by influenza A NS1, growth recovery by OD600; Potency, µM (doses to about 46.1 µM), for inactives: top-dose activity, positive = more growth; 0.4% of 270,000 active; active means well fitted rising curve with a large enough effect; inconclusive means small, poorly fitted or top-dose-only effect; inactive means no such curve, though single readings can be large or run the other way; also: nearly all actives have a fitted effect of over 50% in size
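S. cerevisiae expressing influenza A NS1, grown in glucose, washed, then diluted 1:100 into pH 6.0 -URA galactose medium with 23 nl compound. Growth recovery read as OD600; NS1-free strain serves as control.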
StopGo reporter = lowers the luciferase signal of an FMDV 2A StopGo reporter; human cells with a luciferase reporter of 2A StopGo recoding; control for the full effect not named in the record; Potency, µM (titrated, usually from 57.9 µM), inactives show at the top dose signal change, negative = less light; 1.2% of 410,000 active; AID 1159524; active = well fitted falling curve with a large enough effect; inconclusive = small, poorly fitted or top-dose-only effect; inactive = no such curve, though single readings can be large or run the other way; tested in HEK293T cells; also: % is scaled to controls: 0 for no effect and ±100 for the full control effect; nearly all actives have a fitted effect of over 45% in size; luciferase light after 4 h
Marburg entry inh = Marburg virus entry inhibition; Marburg virus pseudotyped entry inhibition, cell reporter; control for the full effect not named in the record; about a third of the inactives were read at about 46 µM; Potency, µM (doses to about 37.8 µM), for inactives: top-dose activity change, negative = inhibition, hits mostly inhibitors; 1.8% of 300,000 active; AID 540276; active = well fitted inhibition curve with a large enough effect; inconclusive = small, poorly fitted or top-dose-only effect, or effect the other way; inactive = flat fitted curve, though single readings scatter; tested in HEK293 cells; about a fifth of its hits are not listed in these tables; also: % is scaled to controls: 0 for no effect and ±100 for the full control effect; luciferase read-out
Cruzain Triton = blocks cruzain activity in presence of Triton detergent. P25779. purified cruzain, Z-FR-AMC fluorescence, 0.01% Triton. Potency, µM, without a hit: max response, negative = inhibition, hits mostly inhibitors. 0.43% of 200,000 active;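 also: plate controls were neutral wells for no effect and buffer without enzyme for full effect; nearly all actives have a fitted effect of over 40% in size; top concentration of the series not given in the record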
Target sequence (P25779 123-467 limits assumed): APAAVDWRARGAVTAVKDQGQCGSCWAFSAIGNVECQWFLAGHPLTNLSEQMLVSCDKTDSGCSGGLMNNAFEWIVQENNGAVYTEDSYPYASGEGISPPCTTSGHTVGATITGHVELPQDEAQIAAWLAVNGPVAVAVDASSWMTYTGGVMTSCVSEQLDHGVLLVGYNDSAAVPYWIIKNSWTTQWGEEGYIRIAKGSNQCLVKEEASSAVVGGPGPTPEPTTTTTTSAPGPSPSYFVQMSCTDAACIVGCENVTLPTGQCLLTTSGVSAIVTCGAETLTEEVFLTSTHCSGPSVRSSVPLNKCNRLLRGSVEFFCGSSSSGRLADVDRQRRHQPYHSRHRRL
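Enzyme 1.5 nM, Z-FR-AMC 2 uM, NaOAc 100 mM pH 5.5, DTT 5 mM, Triton X-100 0.01%; 15 min RT compound preincubation; kinetic ex360/em450, 60 s delta.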
RE007 growth inh = less growth of the S. pombe RE007 Vpr strain | AID 651644 | Potency, µM (titrated, usually from 92.2 µM), inactives show top-dose activity change, negative = less growth | 0.21% of 360,000 active | S. pombe RE007 Vpr strain, BacTiter-Glo ATP luminescence, 24 h; control for the full effect not named in the record; active = well fitted falling curve with a large enough effect; inconclusive = small, poorly fitted or top-dose-only effect; inactive = no such curve, though single readings can be large or run the other way;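 also: % is scaled to controls: 0 for no effect and ±100 for the full control effect; nearly all actives have a fitted effect of over 50% in size; the assay follows cell death caused by Vpr and the record does not say whether a fall means rescue or toxicity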
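Fission yeast strain RE007, carrying one chromosomally integrated HIV-1 vpr copy, was seeded at OD 0.01 in PMG+AL medium with 23 nL pinned compound. After 24 h at 30 °C and 99% humidity, viability was read by BacTiter-Glo luminescence.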
SARS PLP yeast = SARS-CoV PLP inhibition in yeast. S. cerevisiae expressing SARS-CoV PLpro, growth rescue; control for the full effect not named in the record. Potency, µM (titrated, usually from 32.9 µM), for the others: at the highest dose activity, positive = growth rescue. 0.19% of 330,000 active; active means well fitted rising curve with a large enough effect; inconclusive means small, poorly fitted or top-dose-only effect; inactive means no such curve, though single readings can be large or run the other way; also: 0% is about no effect; nearly all actives have a fitted effect of over 55% in size; growth read by luminescence after 48 h
Cruzain inh noDet = cruzain (T. cruzi) inhibition without detergent | P25779 | purified cruzain, Z-FR-AMC fluorescence, no detergent | Potency, µM, for inactives: max response, negative = inhibition, most hits filed as inhibitors | 2.3% of 200,000 active;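 also: plate controls were enzyme without inhibitor for no effect and buffer without enzyme for full effect; nearly all actives have a fitted effect of over 40% in size; top concentration of the series not given in the record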
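Purified cruzain at 1.5 nM, pre-incubated 15 min with compound at room temperature in 100 mM sodium acetate pH 5.5, 5 mM DTT, 0.00005% Triton X-100. Reaction started with 2 uM Z-FR-AMC; AMC fluorescence increase over 60 s gives rate.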
LASV entry inh = blocks Lassa virus binding to or entry into cells. Lassa virus pseudotype entry inhibition, cell reporter; control for the full effect not named in the record. Potency, µM (highest dose often 37.9 µM), for the others: at the highest dose activity change, negative = inhibition, hits mostly inhibitors. 1.2% of 300,000 active. AID 540256; active means well fitted inhibition curve with a large enough effect; inconclusive means small, poorly fitted or top-dose-only effect, or effect the other way; inactive means flat fitted curve, though single readings scatter; tested in HEK293 cells; also: % is scaled to controls: 0 for no effect and ±100 for the full control effect; nearly all actives have a fitted effect of over 50% in size; luciferase read-out
The depositor's hits bear a star; ? = inconclusive; · = not tested or not shown; & = joins results of further samples; [ ] = another dose, or the depositor's remark. Unless noted, calls follow the shape of the dose curve; as a rule, active = well fitted curve in the direction sought with a large enough effect; inconclusive = small, poorly fitted or top-dose-only effect, or another doubt; inactive = no such curve, though single readings can be large; an effect the other way counts as inactive or inconclusive. Potency is read from the fitted curve at half-maximal effect.

SMILES	NS1 inh	StopGo reporter	Marburg entry inh	Cruzain Triton	RE007 growth inh	SARS PLP yeast	Cruzain inh noDet	LASV entry inh
Cc1cc(C)c(C#N)c(SCS(=O)Cc2ccc(Cl)cc2)n1 (centres undefined)	-34%	·	-11%	-3.6%	-7%	1%	3%	1%
COc1ccc(C(=O)Nc2ccc3oc(-c4cccnc4)nc3c2)cc1OC	3%	?	·	-2.0%	-17%	-1%	-4%	?
CCOc1ccc(/C=C2\SC(=S)N(NC(=O)c3ccncc3)C2=O)cc1OC	6%	-21%	-2%	·	3%	-1%	·	-1%
O=C(CSc1nnc(-c2ccccc2)o1)N1CCCC1	5%	54%[activator]	27%[46.1 µM]	·	0%	0%	·	25%
CCc1nc(SCC(=O)Nc2ccnc3ccccc23)n[nH]1	-15%	·	-3%	-2.6%	4%	6%	-6%	-2%
CCN1C(=O)c2ccccc2Sc2ccc(C(=O)O)cc21	5%	5%	8%[46.1 µM]	·	9%	0%	·	6%[46.1 µM]
Cc1ccccc1NC(=S)NCC(c1cccnc1)N(C)C (centres undefined)	3%	-4%	?	-0.7%	1%	1%	13%	5%
CCS(=O)(=O)N1CCc2cc(C(=O)Nc3cc(C(F)(F)F)ccc3Cl)ccc21	·	0%	6%[46.1 µM]	-3.3%	·	·	-1%	-5%[46.1 µM]
CCCCOC(=O)C1=C(C)NC(=O)NC1c1ccc2c(c1)OCO2 (centres undefined)	·	-2%	3%[46.1 µM]	·	-22%	·	·	-19%[46.1 µM]
CC(C)(C)c1nc(C(C)(C)C)c(Br)c(=O)[nH]1	-1%	-14%	?	-1.4%	1%	22%	-21%	1%
CCCc1[nH]nc2c1C(c1ccccc1OCC)C(C#N)=C(N)O2 (centres undefined)	4%	-20%	-18%	-5.1%	-12%	-7%	-3%	-25%
Cc1cc(C)nc(NS(=O)(=O)c2ccc(N/C=C3\CCCC3=O)cc2)n1	6%	57%[activator]	9%	-16%	5%	-4%	-16%	6%
CCOC(=O)c1nn(-c2ccc(Cl)cc2)c2nc(CC)c(C#N)c(=O)n12	1%	12%	-26%	-7.0%	6%	15%	-21%	13%
CCCOc1ccc(C(=O)CCC(=O)OCC(=O)Nc2cccc(S(N)(=O)=O)c2)cc1	·	12%	23%[46.1 µM]	·	6%	2%	·	8%
O=C(NCCc1ccccc1)c1c(O)c2ccccc2[nH]c1=O	-4%	14%	9%[46.1 µM]	·	-14%	1%	·	15%[46.1 µM]
CCOC(=O)c1c(C)c(C(=O)Nc2ccc3c(c2)OCCO3)c(C)n1CC	-18%	6%	-13%	-1.6%	2%	1%	-6%	?
CC1CCN(CCCn2c(SCC(=O)NC3CCCC3)nc3ccccc3c2=O)CC1	7%	16%	?	·	-15%	-2%	·	7%[46.1 µM]
CN(CC(=O)Nc1cccc(F)c1)C(=O)c1cccc(-n2cccc2)c1	·	0%	3%	·	-17%	·	·	-17%[46.1 µM]
O=C(NCc1n[nH]c(=S)n1Cc1ccccc1)c1ccccc1	·	0%	-2%	·	7%	2%	·	10%
COc1cccc(Nc2nc(C)cc(C)c2C(N)=O)c1	16%	-6%	15%	·	-3%	2%	·	21%
CC(C)[C@@H](CO)NC(=O)c1ccc2c3n(nc2c1)-c1ccc(Cl)cc1CO3	-1%	0%	·	·	2%	-4%	·	·
CCCn1c(=O)c(C(=O)N/N=C/c2ccc(F)cc2)c(O)c2ccccc21	3%	-10%	11%[46.1 µM]	·	22%	0%	·	4%[46.1 µM]
CC(C)c1ccc(Nc2ncccc2C(=O)O)cc1	-7%	-24%	?	·	-8%	-2%	·	?
CC(C)(C)C1CCC(C(=O)NCCc2ccc(S(N)(=O)=O)cc2)CC1 (centres undefined)	16%	-18%	-1%[46.1 µM]	·	-10%	0%	·	6%
Cc1ncc([N+](=O)[O-])n1CCOC(=O)c1cc(Cl)cc(Cl)c1N	4%	-22%	-9%	-9.2%	-7%	-33%	-7%	-3%

Compounds shown so far that contain a tert-butyl group:
SMILES	NS1 inh	StopGo reporter	Marburg entry inh	Cruzain Triton	RE007 growth inh	SARS PLP yeast	Cruzain inh noDet	LASV entry inh
CC(C)(C)c1nc(C(C)(C)C)c(Br)c(=O)[nH]1	-1%	-14%	?	-1.4%	1%	22%	-21%	1%
CC(C)(C)C1CCC(C(=O)NCCc2ccc(S(N)(=O)=O)cc2)CC1 (centres undefined)	16%	-18%	-1%[46.1 µM]	·	-10%	0%	·	6%

More results follow:
SMILES	NS1 inh	StopGo reporter	Marburg entry inh	Cruzain Triton	RE007 growth inh	SARS PLP yeast	Cruzain inh noDet	LASV entry inh
CC(OC(=O)Cc1c[nH]c2ccccc12)C(=O)N(C)c1ccccc1 (centres undefined)	·	-1%	-19%	·	-10%	-2%	·	?
COc1ccc(NC(=O)C2CCCN(S(=O)(=O)c3ccc(F)cc3)C2)cc1 (centres undefined)	·	0%	-8%[46.1 µM]	-0.9%	·	·	4%	-21%[46.1 µM]
COc1cccc(/C=C2/SC(=S)N(CCCC(=O)Nc3ccc(O)cc3)C2=O)c1	-5%	26%	·	·	0%	1%	·	·
CCN(C(=O)CN1C(=O)S/C(=C\c2cccc(OC)c2)C1=O)C1CCS(=O)(=O)C1 (centres undefined)	0%	22%	?	·	7%	-1%	·	0%[46.1 µM]
CN1C(=O)N(C)C(=O)C(CCc2ccncc2)(CCc2ccncc2)C1=O	-1%	-4%	·	·	7%	0%	·	·
CC(C)C1NC(C(=O)O)Cc2c1[nH]c1ccccc21 (centres undefined)	1%	-17%&-8%	?	-5.8%	-17%	-4%	-20%	9%[46.1 µM]
O=C(NCCCN1CCOCC1)C1CC(=O)N(C2CCCCC2)C1 (centres undefined)	1µM*	14%	0%	10%	1%	38%	-1%	13%
CC1CCCC(C)N1CCNC(=O)C1CCN(S(=O)(=O)N2CCCCC2)CC1 (centres undefined)	-6%	·	0%	5.5%	-10%	-3%	-2%	6%
CCCCc1nc(SCC(=O)Nc2cc(C)on2)n[nH]1	6%	·	2%	4.0%	-11%	2%	11%	0%
COc1ccc(OC)c(NC(=O)c2ccccc2NS(=O)(=O)c2cccc3cccnc23)c1	14µM*	16%	-1%	-3.9%	3%	4%	?	-8%
COc1ccc2nc(Nc3ccccc3)sc2c1	·	-16%	?	·	?	-6%	·	?
O=C(CCc1ccccc1)Nc1cc(C(=O)O)cc(C(=O)O)c1	4%	0%	-16%[46.1 µM]	·	3%	-1%	·	0%
O=C(c1ccccc1)c1ccc2nc(N3CCCCC3)c3nncn3c2c1	-64%	10µM*	17%	-5.7%	2%	-9%	3%	?
O=C(CN1CCc2ccccc21)NCc1ccccc1Cl	-12%	43%[activator]	?	-6.7%	-11%	-2%	-8%	3%
CCOc1ccc(CC(C(=O)NN)C(=O)NN)cc1CN(C)C	5%	·	-7%	4.4%	6%	17%	4%	4%
Cc1sc(/N=C/c2c(O)ccc3ccccc23)c(C#N)c1C	-2%	·	·	0.0%	·	8%	?	·
CCc1ccc(-n2c(N3CCN(c4cccc(Cl)c4)CC3)nc3ccccc3c2=O)cc1	·	0%	?	-5.5%	·	·	?	-18%[46.1 µM]
Clc1cccc(COn2c(-c3ccc(Cl)cc3Cl)nc3ncccc32)c1	-59%	?	-16%	-1.8%	?	-49%	9%	-21%
Cc1ccc(-n2nc3c(N4CCC(C(=O)NCc5ccc(C)o5)CC4)nnc(C)c3c2C)cc1	9%	-18%	·	·	-13%	?	·	·
CCOCCCNC(=O)C(NC(=O)c1ccc(NC(C)=O)cc1)c1ccccc1 (centres undefined)	-1%	-8%	-15%	0.7%	0%	?	5%	0%
CSc1cccc(CN2CCC(Oc3ccc(C(=O)N4CCCCC4)cc3)CC2)c1	-2%	5%	?	·	0%	2%	·	?
CCN(CC)C(=S)SCC(=O)NC12CC3CC(CC(C3)C1)C2	-39%	-15%	?	-3.7%	2%	-18%	2%	?
Cc1cc(=O)[nH]c(SCC(=O)Nc2ccc(F)cc2)c1C#N	·	-30%	3%[46.1 µM]	·	-1%	-1%	·	?
COc1ccc(C)cc1NC(=O)Nc1nnc(N2CCCCC2)s1	·	-5%	-12%[46.1 µM]	-6.8%	·	·	?	-12%[46.1 µM]
O=C(COc1ccc2ccccc2c1Br)Nc1cccnc1	-46%	-12%	·	·	-9%	-21%	·	·

The last two records of the section before are carried over, then new ones follow:
SMILES	NS1 inh	StopGo reporter	Marburg entry inh	Cruzain Triton	RE007 growth inh	SARS PLP yeast	Cruzain inh noDet	LASV entry inh
COc1ccc(C)cc1NC(=O)Nc1nnc(N2CCCCC2)s1	·	-5%	-12%[46.1 µM]	-6.8%	·	·	?	-12%[46.1 µM]
O=C(COc1ccc2ccccc2c1Br)Nc1cccnc1	-46%	-12%	·	·	-9%	-21%	·	·
COc1cc(C=O)ccc1OCC(=O)NC(C)(C)C	-2%	-5%	-14%[46.1 µM]	·	10%	0%	·	10%[46.1 µM]
CC1CCN(C(=O)CSc2nc(N)c3c4c(sc3n2)CN(C)CC4)CC1	12%	-7%	14%	-4.7%	-8%	5%	-6%	9%
COC(=O)c1c(NC(=O)/C(C#N)=C/c2ccc(OC)cc2)sc2c1CCC2	·	-8%	·	3.2%	·	·	9%	15%[46.1 µM]
COc1ccc(-c2nnc(SCC(=O)N3CCCCC3)o2)cc1	-1%	46%&55%[activator]	?	0.6%	-9%	-2%	9%	28%&5%[46.1 µM]
Cc1nc2ccc(NC(=O)COc3ccccc3)cc2s1	·	6%	?	·	-9%	-3%	·	11%
CCOC(=O)c1cnc2c(C)c(C)ccc2c1Nc1ccc(S(=O)(=O)Nc2ncccn2)cc1	2%	64%[activator]	1%	-12%	3%	10%	18%	-5%
O=C(Nc1cc(S(=O)(=O)Nc2ccccc2Cl)ccc1O)c1cc2c(s1)CCCC2	3%	33%[activator]	·	·	-11%	1%	·	·
CCOC(=O)c1c(C)n(-c2ccccc2)c2ccc(OC(=O)c3ccccc3NC(=O)C(C)(C)C)cc12	·	?	·	-0.5%	·	·	-12%	2%[46.1 µM]
